From PubChem BioAssay
A647 fluor – compound fluoresces in the A647 spectral region; Compound fluorescence, A647 channel (570/671 nm), Tris buffer; max dye-equivalent concentration, M; AID 592; 59,000 tested, under 10 active; active means above 1 µM dye equivalent; inconclusive means 0.1 to 1 µM; inactive means 0.1 µM or less;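 note: values scaled relative to a standard on each plate; highest value over a series up to 38 µM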
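Compound fluorescence was measured in 100 mM Tris buffer, pH 8.0, after 15 min at room temperature, using 570 nm excitation and 671 nm emission filters. Signal was normalized to a per-plate Alexa 647 standard curve and expressed as dye-equivalent concentration at each compound concentration.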
TSHR ag – agonists of human thyroid stimulating hormone receptor; P16473; AID 926; HEK293-CNG-TSHR cells (CNG channel as cAMP sensor), membrane potential dye, cAMP; Potency, µM (doses to about 57.1 µM), for the others: at the highest dose activation, usual class: activators; 0.48% of 73,000 active; active = well fitted activation curve of enough size with the parental cells flat; inconclusive = any curve in the parental cells; inactive = parental cells flat and receptor cells flat or falling; note: potency is the fitted concentration of half-maximal effect; % of control where 0% means no effect; weak receptor curves with flat parental cells got no call and are not listed
Target sequence (P16473 whole entry, looked up): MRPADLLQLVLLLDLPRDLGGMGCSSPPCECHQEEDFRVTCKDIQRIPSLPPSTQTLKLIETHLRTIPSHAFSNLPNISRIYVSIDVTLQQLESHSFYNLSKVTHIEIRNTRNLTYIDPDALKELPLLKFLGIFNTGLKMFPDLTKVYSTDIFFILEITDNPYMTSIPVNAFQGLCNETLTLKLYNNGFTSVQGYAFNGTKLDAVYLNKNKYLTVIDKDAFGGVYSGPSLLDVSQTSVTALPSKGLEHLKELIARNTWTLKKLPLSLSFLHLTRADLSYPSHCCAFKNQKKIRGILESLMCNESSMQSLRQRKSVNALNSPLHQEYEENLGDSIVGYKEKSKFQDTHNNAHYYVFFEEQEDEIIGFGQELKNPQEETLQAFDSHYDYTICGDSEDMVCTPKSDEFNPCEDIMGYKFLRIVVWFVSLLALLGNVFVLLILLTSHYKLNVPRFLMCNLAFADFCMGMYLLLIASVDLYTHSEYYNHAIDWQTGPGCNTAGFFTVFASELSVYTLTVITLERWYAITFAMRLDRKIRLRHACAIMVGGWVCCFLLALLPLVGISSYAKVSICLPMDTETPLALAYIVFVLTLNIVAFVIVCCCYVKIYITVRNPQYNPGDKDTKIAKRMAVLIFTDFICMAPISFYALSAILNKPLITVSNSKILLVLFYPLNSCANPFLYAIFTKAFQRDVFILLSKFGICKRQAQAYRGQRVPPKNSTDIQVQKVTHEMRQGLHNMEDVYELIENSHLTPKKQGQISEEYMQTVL
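cAMP rise detected as CNG-channel membrane depolarization by fluorescent dye (emission 590 nm), 30 min after compound, following 60 min dye loading containing 100 uM RO 20-1724 at room temperature. Cells: TSHR/CNG HEK 293, with parental CNG HEK 293 as control.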
A488 fluor – compound autofluorescence in A488 spectral region | compound autofluorescence, A488 spectral region, dye equivalency; active compounds read high | max dye equivalency, M | 0.1% of 59,000 active | AID 591; active = above 10 nM dye equivalent; inconclusive = 1 to 10 nM; inactive = 1 nM or less; about half of its hits are not listed in these tables;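 note: highest value over a series up to 38 µM; compound alone in buffer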
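Read-out: relative fluorescence at 480/540 nm, expressed as Alexa 488 dye-equivalent concentration from a six-point A488 standard included per plate. Conditions: 100 mM Tris, pH 8.0; 15 min incubation, room temperature.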
Resorufin fluor – resorufin region autofluorescence. Compound fluorescence, resorufin region 547/598 nm, buffer; active compounds read high. 0.04% of 59,000 active. max dye-equivalent concentration, M; active = above 10 nM dye equivalent; inconclusive = 1 to 10 nM; inactive = 1 nM or less; a few of its hits are not listed in these tables; note: highest value over a series up to 38 µM
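Compounds in 100 mM Tris buffer, pH 8.0, incubated 15 min at room temperature, then read with 547 nm excitation and 598 nm emission filters. Fluorescence was converted to dye-equivalent concentration using an on-plate six-point resorufin standard curve.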
AID923 – qHTS Assay for Allosteric/Competitive Inhibitors of Caspase-1: Spectroscopic Profiling in AFC Spectral Region; Potency, µM (doses to about 57.5 µM), for the others: at the top dose fluorescence increase, hits mostly activators; compound fluorescence, AFC spectral region (405/520 nm); almost no hit is shown here; 1.1% of 75,000 active; AID 923, 2007; active = well fitted activation curve with a large enough effect; inconclusive = small, poorly fitted or top-dose-only effect;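 note: potency is the fitted concentration of half-maximal effect; 0% is about no effect; scaled to a free AFC standard on each plate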
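Titrations up to 57 uM read every 20 sec for 3 min (405/520 nm) with 50 nM caspase 1 and 5 uM Ac-WEHD-AFC, pH 7.5 HEPES buffer. Fluorescence-vs-time intercept gave baseline, scaled against on-plate AFC standard.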
Active calls of the source: *; i = inactive; ? = inconclusive; . = not tested or not shown; & = joins results of further samples; [ ] = dose if it differs, or a comment. These rows are one share of the data; rates above refer to the full screens.

The line under a structure holds: A488 fluor	Resorufin fluor	AID923	TSHR ag	A647 fluor
- CC(=O)c1nnn(-c2nc(N)nc(N(c3ccccc3)c3ccccc3)n2)c1C
  i	i	-1.5%	?	3.3e-08
- O=S1(=O)CCC(NS(=O)(=O)c2cccc3cccnc23)C1 (stereo not drawn)
  i	i	-1.1%	-1%	4.3e-09
- O=C(NCC1CCCO1)c1ccc2c(=O)n(CCc3ccccc3)c(=O)[nH]c2c1 (stereo not drawn)
  i	i	-0.7%	-8%[11.4 µM]	3.4e-09
- CC[C@@](N)(C(=O)O)c1ccc(C(=O)O)cc1
  .	.	-1.8%	3%	.
- Nc1nnc(Cc2ccc(Cl)cc2)s1
  i	i	0.9%	0%	1e-09
- COc1cc(NC(=O)Cc2ccccc2)ccc1NC(=O)c1ccco1
  .	.	-0.4%	-11%	.
- Cc1cccc(NC(=O)Cn2c(=O)n(Cc3ccco3)c(=N)c3c4c(sc32)COC(C)(C)C4)c1
  i	i	1.1%	8%	5.1e-08
- CC(=O)NCC(=O)OCN1C(=O)c2ccccc2C1=O
  i	i	.	.	1e-09
- COC(=O)C1=C(N)Oc2cc(C)n(Cc3cccnc3)c(=O)c2C1c1cc(OC)ccc1OC (stereo not drawn)
  i	i	1.8%	2%	1.8e-08
- Cc1nn(CC(=O)Nc2ccc3c(c2)nc(CN2CCCCC2)n3C)c(=O)c2ccccc12
  i	i	-3.6%	-3%	2.5e-08
- CC1CCCN(S(=O)(=O)c2ccc(NC(=O)Cn3nnc(-c4ccccc4F)n3)cc2)C1 (stereo not drawn)
  i	i	-3.9%	-7%	2.5e-08
- COc1ccccc1C1N(c2ccc(Cl)cc2)C(=O)C2CCCN21 (stereo not drawn)
  i	i	0.6%	5%	4.2e-09
- CC(=O)c1cccc(OCCN2C(=O)NC(C)(C)C2=O)c1
  i	i	-0.3%	12%	1e-09
- C=C(C)CSc1nc2nc(C)cc(C)n2n1
  i	i	1.5%	14%	1e-09
- Cc1oc(-c2cccs2)nc1CS(=O)CC(=O)NC1CCCCCC1 (stereo not drawn)
  .	.	2.4%	9%	.
- CCn1c(CCn2ccnc2C)n[nH]c1=S
  i	i	-1.3%	-2%	6.4e-08
- C=CCOc1ccc(C2c3c(oc4ccccc4c3=O)C(=O)N2c2ccccn2)cc1OCC (stereo not drawn)
  .	.	3.8%	-6%	.
- CN(CCNC(=O)c1cc2c(=O)n(C)c3ccccc3c2n1C)Cc1ccccc1
  .	.	-3.3%	?	.
- CCOC(=O)NCC(C)(C)CNC(=O)OCC
  i	i	-2.0%	33%	3.4e-08
- COc1ccc(Cn2nnnc2CN2CCC(c3nc4ccccc4s3)CC2)cc1
  i	i	1.4%	?	1.6e-08
- CCCn1c(SCC(=O)Nc2nnc(CC)s2)nnc1-c1ccco1
  i	i	-0.1%	7%	6.3e-08
- COCCN(CCOC)S(=O)(=O)c1ccc(C(=O)Nc2nc(C)c(C(C)=O)s2)cc1
  i	i	0.2%	-1%	1e-09
- CCn1ncc(Br)c1C(=O)Nc1sc2c(c1C(N)=O)CCC2
  i	i	-1.0%	10%	1e-09
- COc1ccc(C2C(C#N)=C(N)OC(C(C)(C)C)=C2C#N)cc1OC (stereo not drawn)
  i	i	5.3%	-12%	3.7e-08
- Cc1cccc(OCCn2c(=O)n(C)c3ccccc32)c1
  .	.	1.3%	7%	.
- COC(=O)N1CCC[C@@]2(CCN(C(=O)Nc3cccc(C#N)c3)C2)C1
  i	i	1.4%	10%	1.7e-08
- O=C(CN1CCN(S(=O)(=O)c2ccc(Br)cc2)CC1)Nc1ccc(F)cc1F
  i	i	2.2%	?	3.9e-08
- COc1ncc2nc(-c3ccccc3)c(=O)n(CCC#N)c2n1
  i	i	5.1%	-8%	1e-09
- COc1ccc(-c2nc(C)c(C(C)=O)n2O)cc1OC
  .	.	-1.9%	2%[11.4 µM]	.
- N#Cc1ccc(CSc2nnc(-c3cccc(S(=O)(=O)N4CCCCC4)c3)o2)cc1
  i	i	1.0%	?	2.9e-08
- O=C(CSc1ncnc2c1oc1ccccc12)Nc1cccc(Cl)c1
  i	i	3.3%	?	1e-09
- CCCCNC(=O)C(C#N)c1nc2ccccc2nc1N1CCN(c2ccccc2F)CC1 (stereo not drawn)
  i	i	.	.	2.9e-08
- O=C(Nc1ccc2c(c1)CCC2)c1cnn2c1NC(c1ccco1)CC2C(F)(F)F (stereo not drawn)
  i	i	-0.6%	46%	1.8e-08
- CC1CCC(NC(=O)c2cc3c(s2)CS(=O)(=O)C3)CC1 (stereo not drawn)
  i	i	3.9%	?	1e-09
- COc1ccc(-n2c(=O)c(CCc3ccccc3)nc3cnc(OC)nc32)cc1
  i	i	0.2%	?	9e-09
- Cc1cc(C)nc(Sc2ccc3nnc(C(F)(F)C(F)(F)C(F)(F)F)n3n2)n1
  i	i	0.4%	-1%	2.5e-09
- CN1/C(=C/C=N/n2cnnc2)C(C)(C)c2ccccc21
  i	i	6.1%	1%	2.2e-08
- COc1cc(-c2c(C#N)c(N)nc3c2c(C)nn3-c2ccc(C)c(C)c2)cc(OC)c1OC
  i	i	13%	14%	5.5e-09
- COc1ccc(CN(Cc2ccccn2)S(=O)(=O)c2ccc(-n3cnnn3)c(OC)c2)cc1
  i	i	1.9%	3%	3.4e-08
- CCSc1nc2c(c(=O)n(C)c(=O)n2C)n1Cc1ccc(Cl)cc1
  i	i	0.0%	?	3.4e-09

Record cards, as listed above:
COc1ccc(C2C(C#N)=C(N)OC(C(C)(C)C)=C2C#N)cc1OC (stereo not drawn) is entered as A488 fluor: i; Resorufin fluor: i; AID923: 5.3%; TSHR ag: -12%; A647 fluor: 3.7e-08
COc1ccc(-n2c(=O)c(CCc3ccccc3)nc3cnc(OC)nc32)cc1 is entered as A488 fluor: i; Resorufin fluor: i; AID923: 0.2%; TSHR ag: ?; A647 fluor: 9e-09
CCCn1c(SCC(=O)Nc2nnc(CC)s2)nnc1-c1ccco1 is entered as A488 fluor: i; Resorufin fluor: i; AID923: -0.1%; TSHR ag: 7%; A647 fluor: 6.3e-08

(cont.)
The line under a structure holds: A488 fluor	Resorufin fluor	AID923	TSHR ag	A647 fluor
- CNc1nc(C)nc(-c2ccccc2O)n1
  .	.	0.4%	-14%	.
- CCOC(=O)C1=C(Cn2cnc3ccccc32)NC(=O)NC1c1cc(C)ccc1C (stereo not drawn)
  i	i	3.0%	.	1.7e-09
- CCc1[nH]c(=O)c(C#N)c2c1CCCC2
  i	i	.	.	4.5e-09
- COc1cc(NC(=O)c2ccc(Cl)cc2)c(OC)cc1NC(=O)CN1CCOCC1
  i	i	-0.6%	6%	1e-09
- CCc1ccc(NC(=O)CC2NCCNC2=O)cc1 (stereo not drawn)
  i	i	-0.3%	10%	3.4e-08
- CCN(CC)CCCC(C)NC(=O)c1ccc(Cc2nc3ccccc3[nH]2)cc1 (stereo not drawn)
  .	.	2.4%	2%	.
- Cc1cc(C)n(-c2ccc(Cl)c(C(=O)O)n2)n1
  i	i	0.2%	3%	2e-08
- N#Cc1c(N2CCCCC2)nc(N2CCCCC2)c2c1CCN(Cc1ccccc1)C2
  ?	i	.	.	1.3e-09
- CCN=C1SC(CC(=O)NC(N)=O)C(=O)N1CC (stereo not drawn)
  i	i	-2.6%	-9%	1e-09
- Cc1ccc(S(=O)(=O)Nc2ccc(C(=O)Nc3cc(C)on3)cc2)cc1
  i	i	-1.9%	11%	4.9e-09
- Cn1nc(OCCOc2ccccc2)ccc1=O
  .	.	1.3%	2%	.
- O=c1c2ccccc2nnn1CSc1nnc(-c2cccc(S(=O)(=O)N3CCCCC3)c2)o1
  i	i	1.0%	12%	1.6e-09
- CC(C)N(C(=O)N1CCC(c2nc(-c3ccncc3)no2)CC1)C(C)C
  i	i	-1.5%	?	5.4e-09
- CCC(=O)N[C@@H]1CCc2cccc(OC)c2C1
  .	.	-1.7%	3%	.
- O=C(O)c1ccc2c(c1C(=O)O)C(=O)OC2(c1ccc(O)cc1)c1ccc(O)cc1
  i	i	-2.5%[11.5 µM]	-3%[11.4 µM]	4.2e-09
- CCn1c(=N)n(CC(O)COc2cccc(C)c2)c2ccccc21 (stereo not drawn)
  i	i	0.1%	?	1e-09
- Cc1cc2nc3c(c(=O)n2[nH]1)CCCC3
  .	.	-0.8%	5%	.
- COc1ccc(NC(=O)c2ccc(C(=O)c3ccccc3)o2)cc1
  i	i	0.7%	-5%	1.8e-08
- COc1ccc(OC)c(CNC(=O)Cc2c(C(=O)O)[nH]c3ccccc23)c1
  i	i	0.8%	0%	1.8e-09
- O=C(N1CCOCC1)C12CC3CC(C1)CC(C(=O)N1CCOCC1)(C3)C2
  i	i	2.5%	-3%	3.7e-09
- CCOc1cccc2c1OC1(C)CC2NC(=O)N1c1cccc(Cl)c1 (stereo not drawn)
  i	i	-0.5%	-11%	6.8e-09
- Nc1nc(-c2ccc3ccccc3c2)cc(-c2cc(-c3ccc4ccccc4c3)nc(N)n2)n1
  i	i	0.6%[11.5 µM]	-1%[11.4 µM]	1e-09
- CCOC(=O)c1cc2c(=O)n3cccc(C)c3nc2n(Cc2cccnc2)c1=N
  i	i	.	.	1e-09
- COc1ccc(-n2ncc3c(N4CCCc5ccccc54)ncnc32)cc1
  i	i	7.1%	22%	1e-09
- CN(C)Cc1cc(C(C)(C)C)c(O)c(C(C)(C)C)c1
  .	.	2.0%	?	.
- COc1ccc(Cn2c(=O)[nH]c3cc(C(=O)NCCCN4CCCC4)ccc3c2=O)cc1
  i	i	1.4%	-2%	1e-09
- CCOC(=O)C(C)Sc1nc2ccccc2c(=O)n1CC (stereo not drawn)
  i	i	-1.3%	?	1e-09
- CCc1c(C)nc(SCC(=O)CC(=O)OC(C)C)c(C#N)c1C
  i	i	4.2%	?	1e-09
- C=CCn1c(-c2ccc(OC)c(OC)c2)n[nH]c1=S
  i	i	.	.	1.8e-08
- Cc1ccc(S(=O)(=O)N2CCC(C(=O)O)CC2)cc1C(=O)O
  i	i	0.7%	.	1.3e-08
- CCOC(=O)CSc1nc(C2CC2)nc2ccccc12
  i	i	-0.2%	4%	3e-08
- Cc1[nH]c2ccccc2c1C(=O)CN1CCN(C2CCCCC2)CC1
  i	i	-0.9%	13%	2.5e-08
- COC(=O)c1ccccc1NC(=O)c1cc2n(n1)C(C(F)F)CC(C(F)F)N2 (stereo not drawn)
  i	i	-1.1%	-6%	6e-09
- COc1ccc(CCN(C)CCc2ccc(OC)c(OC)c2)cc1OC
  i	i	0.6%&-1.7%	1%&10%	5.2e-08
- O=C(Nc1ccc(N2CCOCC2)c(Cl)c1)c1cccnc1
  i	i	-0.2%	1%	9.3e-09
- Cc1onc(-c2ccccc2)c1C(=O)N1CCc2ccccc21
  .	.	0.1%	?	.
- O=C(c1ccccc1)c1ccccc1C(=O)N1CCOCC1
  i	i	4.5%	0%	1e-09
- CCc1ccc(-c2nnn(Cc3nn[nH]n3)n2)cc1
  i	i	0.1%	-5%	3.7e-08
- N#Cc1c(N)c(C(=O)c2ccc(Cl)cc2)n2c1CCC2
  i	i	0.4%	12%	2e-08
- Cc1c(O)ccc2c1OCO2
  .	.	-0.5%[11.5 µM]	-1%[11.4 µM]	.
- Clc1ccc2[nH]c3c(c2c1)CCc1cn[nH]c1-3
  .	.	0.2%	-24%	.
- CCOC(=O)C1=C(C)N=c2s/c(=C\c3ccncc3)c(=O)n2C1c1ccc2c(c1)OCO2 (stereo not drawn)
  i	i	2.6%	2%	1.8e-08
